PME-1 primary = blocks human protein phosphatase methylesterase 1 | AID 2130 | recombinant PME-1, FP-Rh probe fluorescence polarization | inhibition, % at 5.9 µM | Q9Y570 | 320,000 tested, 0.53% active;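 active means inhibition above the campaign mean of all compounds plus 3 SD, cut at about 26% in these data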;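 further: competitive labeling of PME-1 active site by serine hydrolase directed probe; 0% = PME-1 with DMSO and 100% = wells lacking PME-1 enzyme; inhibitors block probe labeling so polarization falls and inhibition rises; many of its hits are not listed in these tables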
PREPL inh = inhibitors of human prolyl oligopeptidase-like enzyme PREPL; recombinant PREPL, fluorescence polarization activity-based probe; inhibition, % at 5.96 µM; 320,000 tested, 0.68% active; AID 2751; in the data active means inhibition above about 43%;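 further: 0% = enzyme with DMSO and 100% = wells lacking enzyme; many of its hits are not listed in these tables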
PAFAH1B3 FP inh = inhibitors of human PAFAH1B3; Q15102; recombinant PAFAH1B3, FP-rhodamine probe, fluorescence polarization; inhibition, % at 3.39 µM; 340,000 tested, 0.28% active;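 active means inhibition above the screen-wide average of all tested compounds plus 3 SD, cut at about 25% in these data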;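 further: 0% = enzyme with DMSO only and 100% = wells lacking PAFAH1B3 protein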
Target sequence (Q15102 whole entry, looked up): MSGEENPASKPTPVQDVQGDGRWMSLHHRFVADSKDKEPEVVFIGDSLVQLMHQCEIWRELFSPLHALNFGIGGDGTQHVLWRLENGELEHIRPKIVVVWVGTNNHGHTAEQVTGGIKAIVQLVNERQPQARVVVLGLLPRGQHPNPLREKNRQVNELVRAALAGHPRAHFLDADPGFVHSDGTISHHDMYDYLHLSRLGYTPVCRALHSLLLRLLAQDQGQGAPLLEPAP
GSTO1 counter = counter-screen for RBBP9 inhibitors: inhibitors of human GSTO1 | P78417 | recombinant GSTO1, activity-based probe fluorescence polarization | inhibition, % at 5.96 µM | 300,000 tested, 1.1% active | AID 1974;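 active means inhibition above the campaign mean inhibition plus 3 SD, cut at about 35% in these data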;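 further: 0% = GSTO1-1 with DMSO and 100% = wells lacking GSTO1-1 enzyme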
Target sequence (P78417 whole entry, looked up): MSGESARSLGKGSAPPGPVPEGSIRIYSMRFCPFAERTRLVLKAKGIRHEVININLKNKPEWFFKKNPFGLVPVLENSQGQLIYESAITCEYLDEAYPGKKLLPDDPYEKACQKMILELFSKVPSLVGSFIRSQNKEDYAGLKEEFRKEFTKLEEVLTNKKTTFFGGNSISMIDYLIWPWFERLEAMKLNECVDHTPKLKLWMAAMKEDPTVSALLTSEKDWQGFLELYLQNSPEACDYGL
PAFAH1B2 FP inh = PAFAH1B2 (human) inhibition; recombinant PAFAH1B2, FP-rhodamine activity probe, fluorescence polarization; inhibition, % at 3.39 µM; P68402; 340,000 tested, 1.2% active;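 active means inhibition above the mean of all tested compounds plus 3 SD, cut at about 24% in these data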;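 further: 0% = enzyme with DMSO and 100% = wells lacking PAFAH1B2; many of its hits are not listed in these tables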
PAD4 FP inh = blocks human protein arginine deiminase 4; recombinant PAD4, RCA probe fluorescence polarization; inhibition, % at 6.36 µM; 330,000 tested, 0.41% active; AID 485272;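 active means percent inhibition above a cutoff equal to the mean of all tested compounds plus 3 SD, cut at about 15% in these data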;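 further: 0% = PAD4 with RCA probe and DMSO and 100% = probe without PAD4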
LYPLA2 counter = counter-screen for PME1 inhibitors: inhibitors of human LYPLA2; recombinant LYPLA2, FP-Rh probe fluorescence polarization; inhibition, % at 5.9 µM; O95372; AID 2177; 320,000 tested, 0.38% active;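 active means inhibition above the screen-wide mean plus 3 SD, limit set per campaign, cut at about 26% in these data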;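 further: 0% = LYPLA2 with DMSO and 100% = wells lacking LYPLA2 enzyme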
Target sequence (O95372 whole entry, looked up): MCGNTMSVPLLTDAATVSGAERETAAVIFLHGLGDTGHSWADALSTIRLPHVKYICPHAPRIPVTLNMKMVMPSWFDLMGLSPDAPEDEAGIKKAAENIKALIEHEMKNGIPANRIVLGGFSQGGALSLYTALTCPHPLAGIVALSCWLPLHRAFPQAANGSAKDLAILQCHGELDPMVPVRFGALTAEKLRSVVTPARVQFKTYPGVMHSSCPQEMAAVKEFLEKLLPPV
LYPLA1 counter = LYPLA1 (human) inhibition in PME1 counter-screen; inhibition, % at 5.9 µM; recombinant LYPLA1, FP-Rh probe fluorescence polarization; 320,000 tested, 0.16% active; O75608;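 active means inhibition above the mean of all tested compounds plus 3 SD, set per campaign, cut at about 14% in these data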;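 further: inhibitors block serine hydrolase probe labeling of LYPLA1 so polarization falls; 0% = enzyme with DMSO and 100% = wells lacking LYPLA1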
Target sequence (O75608 whole entry, looked up): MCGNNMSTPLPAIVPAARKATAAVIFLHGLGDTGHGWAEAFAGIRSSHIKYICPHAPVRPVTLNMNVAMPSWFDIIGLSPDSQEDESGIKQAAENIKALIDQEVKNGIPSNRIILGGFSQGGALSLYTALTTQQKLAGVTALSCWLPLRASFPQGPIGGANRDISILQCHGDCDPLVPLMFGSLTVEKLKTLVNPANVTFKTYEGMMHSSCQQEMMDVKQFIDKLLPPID
Starred values were filed as active, the others as inactive; x = no result given. An excerpt; rates above refer to the full screens.

Compound,PAFAH1B3 FP inh,LYPLA2 counter,LYPLA1 counter,PREPL inh,PME-1 primary,PAFAH1B2 FP inh,GSTO1 counter,PAD4 FP inh
CCN(CC)c1ccc(C(=O)OCC(=O)c2ccco2)cc1,2,-1,1,12,2,3,5,-3
Cc1cccn2c(=O)nc(SCC(=O)N3CCC(Cc4ccccc4)CC3)nc12,1,-1,1,1,7,4,-5,3
Cc1ccccc1NS(=O)(=O)c1ccc(C(=O)N2CCCCCCC2)cc1,2,6,3,11,17,7,1,-1
CCc1cc(=O)oc2c3c(cc(OCC(=O)NCc4ccccn4)c12)OC(C)(C)CC3,2,0,4,15,7,1,-3,2
CS(=O)(=O)c1nc(-c2ccccc2)cc(-c2ccccc2)c1C#N,-10,-28,-22,7,-27,-5,-28,3
Cc1c(C)c2c(OCC(=O)N[C@@H](C(=O)O)c3ccccc3)cc3c(c2oc1=O)CCC(C)(C)O3,8,9,1,0,-1,38*,-3,-3
CCOc1ccc(NS(=O)(=O)c2ccc(C(=O)NCc3ccncc3)cc2)cc1,-2,-1,-4,1,-3,-2,8,4
Cc1ccccc1NC(=O)c1ccc(NS(=O)(=O)c2cc(C(C)(C)C)cc(C)c2C)cc1,-18,-41,-20,6,-26,-5,1,0
O=C(NC1CCN(Cc2ccccc2)CC1)c1cccc(S(=O)(=O)Nc2ccc(SC(F)F)cc2)c1,10,x,x,6,x,4,x,7
COc1ccc(NS(=O)(=O)c2cccc(C(=O)N3CCCC3)c2)cc1,-4,-3,1,6,3,1,12,0
COc1ccc2c(c1)c(CC(=O)OCC(=O)O)c(C)n2C(=O)c1ccc(Cl)cc1,-1,-3,-4,-5,-6,3,17,5
Cc1ccc(S(=O)(=O)N2CCN(C(=O)COC(=O)/C=C/c3ccccc3[N+](=O)[O-])CC2)c(C)c1,6,9,1,17,6,-4,-20,-2
CCN(CC)S(=O)(=O)c1ccc(NC(=O)C(C)N(c2ccc(OC)cc2)S(C)(=O)=O)cc1 (stereo not drawn),-3,1,-1,12,-5,4,-1,0
O=C(NCCCN1CCOCC1)c1ccc(-n2nc(C(F)(F)F)cc2-c2cccs2)cc1,-3,-2,-1,6,7,5,0,1
CSC[C@H](NC(=O)COc1cc2c(c3oc(=O)c(C)c(C)c13)CCC(C)(C)O2)C(=O)O,-5,3,-1,-17,-3,5,-3,-5
Cc1cccc(NS(=O)(=O)c2cccc(C(=O)NCc3ccccc3CN3CCOCC3)c2)c1,14,-1,-5,4,5,2,x,-1
Cc1ccc(-c2n[nH]c(=O)c3ccccc23)cc1S(=O)(=O)Nc1ccc(F)cc1,2,-6,-7,-9,15,1,-15,-6
Cc1cc(C)c(OCC(=O)OCC(=O)NNC(=O)c2ccccc2F)c(C)c1,5,4,1,7,4,1,x,6
CCCNC(=O)COC(=O)/C=C/c1ccc2c(c1)OCO2,-1,6,4,9,0,3,-1,-1
Cc1ccc(NS(=O)(=O)c2ccc(C(=O)OCC(=O)N3CCCCC3)cc2)cc1,8,1,-1,2,8,5,x,5
O=C(COc1ccc(S(=O)(=O)Nc2ccc(Cl)cc2)cc1)N1CCOCC1,1,7,3,-1,4,12,7,-2
C=CCNc1nc(C(=O)OCC(=O)c2ccc(Cl)cc2)cs1,13,-8,-7,-9,-13,0,5,-12
CC[C@H](C)[C@H](NC(N)=O)C(=O)NCCc1ccc(Cl)cc1Cl,x,8,0,2,2,x,2,-6
Cc1ccc(NS(=O)(=O)c2cccc(C(=O)NCC(c3ccc(F)cc3)N3CCOCC3)c2)cc1 (stereo not drawn),3,-6,0,-9,0,5,30,0
CCOC(=O)c1ccc(N2CCOCC2)c(NS(=O)(=O)c2ccc(F)cc2)c1,-1,16,6,9,-2,8,3,-2
Cc1ccc(NS(=O)(=O)c2ccc(OCC(=O)NCc3ccncc3)cc2)cc1,2,-7,-4,10,-4,9,20,-4
CCOc1cc(S(=O)(=O)Nc2ccc(CC)cc2)ccc1Cl,-7,-23,-10,-10,-6,3,-3,2
CCOc1ccc(NS(=O)(=O)c2ccc(NC(=O)C3CC3)cc2)cc1,9,-1,-3,15,2,-2,21,2
Cc1c(Cl)cccc1NC(=O)COC(=O)Cc1ccsc1,7,-1,1,15,-2,-3,x,2
CCOC(=O)c1cnc(C(C)(C)C)[nH]c1=O,2,-2,-2,14,-3,4,24,2
Cc1nn(-c2ccccc2)c(C)c1NC(=O)COC(=O)c1ccc(S(=O)(=O)C(F)F)cc1,1,-3,0,12,1,3,-2,1
CCOC(=O)CSc1nc(N)nc(C)c1Br,10,7,-3,-1,-2,3,-6,-2
Cc1cccc(NS(=O)(=O)c2ccc(NC(=O)N3CCCCC3)cc2)c1,15,3,1,2,-1,9,0,-2
COc1cccc(CNC(=O)c2ccc(CS(=O)(=O)Cc3ccccc3C)o2)c1,5,-2,-7,-5,-5,4,8,-2
CCOc1ccc(NS(=O)(=O)c2ccc(C(=O)N(C)CC(=O)Nc3ccc(OC)cc3)cc2)cc1,1,-2,-2,12,9,-4,7,-3
Cc1cccc(Oc2sc(C(=O)c3ccccc3)c(N)c2C#N)c1C,-6,-4,-6,-9,25,0,-15,-1
Cc1ccc(-c2nnc(CSc3nnc(COc4ccccc4)n3-c3ccc(C)cc3)o2)cc1,6,-4,-4,-19,22,-3,14,4
O=C(c1cccc(S(=O)(=O)Nc2ccc(Br)cc2)c1)N1CCC1,-4,7,-3,8,0,13,14,4
Clc1ccc(CO/N=C/c2c(-c3ccccc3)nc3n2CCS3)c(Cl)c1,1,8,1,38,0,3,2,-3
O=C(NCc1ccncc1)c1cccc(S(=O)(=O)Nc2ccc(SC(F)F)cc2)c1,2,10,4,-5,-4,5,-1,13
Cc1ccc(NS(=O)(=O)c2cccc(C(=O)NCCCN3CCCC3=O)c2)cc1,12,-5,-1,-10,8,11,-1,3
COC(=O)c1ccc(NC(=O)COC(=O)CCC2CCCC2)cc1,-1,5,1,13,-6,2,x,0
Cc1ccc(Sc2ccc(S(=O)(=O)Nc3ccc(CC(=O)O)cc3)cc2)cc1C,1,1,-6,0,6,11,x,4
O=C(c1cccc(NS(=O)(=O)c2ccc(F)cc2)c1)N1CCN(c2ccccc2)CC1,6,6,-1,12,2,2,-8,0
O=C(OCC(=O)N1CCOCC1)c1cccc(S(=O)(=O)Nc2ccc(F)cc2)c1,-1,5,-1,0,1,7,x,-5
COc1cc2[nH]c(C(=O)N3CCC(Cc4ccccc4)CC3)cc2c(OC)c1OC,-3,33*,-3,25,-6,7,5,2
Cc1ccc(C)c(NC(=O)NNC(=O)c2cc3ccccc3cc2O)c1,-1,-6,-6,14,4,4,5,-1
CCOC(=O)c1cc(C(=O)OCC)c(=O)[nH]c1N1CCCCC1,4,-6,1,8,4,-2,0,-4
Cc1ccccc1C(=O)O/N=C(\c1ccccc1)c1ccccn1,14,3,-1,6,7,9,5,0
Oc1oc(-c2ccco2)nc1C=Nc1ccccc1,6,18,5,9,8,1,1,-2
O=C(NCc1ccco1)c1ccc(CS(=O)(=O)Cc2ccc(Cl)cc2)o1,7,7,3,0,-1,3,-1,3
O=S(=O)(NC1CCCCC1)c1cccc(-c2nnc(-c3ccccc3)o2)c1,4,-8,-10,9,-8,1,-3,-1
CCOc1ccc(NS(=O)(=O)c2ccc(C(=O)N(C)Cc3cccc(OC)c3OC)cc2)cc1,-8,1,-5,0,4,-2,8,-2
Cc1nc(-c2ccccn2)nc(N(C)c2ccccc2)c1Cl,2,1,-3,0,-5,-2,5,-1
O=C(COC(=O)C1CC2C=CC1C2)Nc1c(Br)cc([N+](=O)[O-])cc1Br (stereo not drawn),4,x,x,9,x,1,x,1
Cc1cccc(C(=O)N/N=C/c2ccc[nH]2)c1,-7,3,0,1,2,2,6,3
Cc1c(/C=C2\SC(=Nc3cccc(C(=O)O)c3)NC2=O)c2ccccc2n1C,4,-6,0,7,18,0,-6,-3
C=CCn1c(SCC(=O)Nc2ccc(F)cc2)nc2cc(C(=O)O)ccc2c1=O,5,-7,-2,8,4,0,-2,-7
O=C(/C=C/c1ccc([N+](=O)[O-])cc1)NCc1ccco1,3,4,-1,6,-4,2,2,3
CCN(CC(=O)NCc1ccc(Cl)cc1)C(=O)c1cccc(S(=O)(=O)Nc2ccc(OC)cc2)c1,12,0,0,1,0,4,5,-3

Part of the list above in order of number of heavy atoms, smallest number first:
Compound,PAFAH1B3 FP inh,LYPLA2 counter,LYPLA1 counter,PREPL inh,PME-1 primary,PAFAH1B2 FP inh,GSTO1 counter,PAD4 FP inh
Cc1ccccc1C(=O)O/N=C(\c1ccccc1)c1ccccn1,14,3,-1,6,7,9,5,0
Cc1ccc(NS(=O)(=O)c2cccc(C(=O)NCCCN3CCCC3=O)c2)cc1,12,-5,-1,-10,8,11,-1,3
CCOc1ccc(NS(=O)(=O)c2ccc(C(=O)N(C)Cc3cccc(OC)c3OC)cc2)cc1,-8,1,-5,0,4,-2,8,-2

Entries of single compounds from above. Values in the order: PAFAH1B3 FP inh	LYPLA2 counter	LYPLA1 counter	PREPL inh	PME-1 primary	PAFAH1B2 FP inh	GSTO1 counter	PAD4 FP inh
CCN(CC(=O)NCc1ccc(Cl)cc1)C(=O)c1cccc(S(=O)(=O)Nc2ccc(OC)cc2)c1 is listed as 12	0	0	1	0	4	5	-3
O=C(/C=C/c1ccc([N+](=O)[O-])cc1)NCc1ccco1 is listed as 3	4	-1	6	-4	2	2	3

Continuation.
Compound,PAFAH1B3 FP inh,LYPLA2 counter,LYPLA1 counter,PREPL inh,PME-1 primary,PAFAH1B2 FP inh,GSTO1 counter,PAD4 FP inh
Fc1ccc(N2CCN(c3nc(CN4CCOCC4)nc4scc(-c5ccccc5)c34)CC2)cc1,-5,0,4,20,8,-1,0,1
O=S(=O)(Nc1ccccc1)c1ccc(NS(=O)(=O)c2cccs2)cc1,2,-5,1,3,-6,3,-1,2
COc1ccccc1C(=O)O/N=C(\c1ccccc1)c1ccncc1,11,3,-1,23,-1,15,11,-2
O=C(COc1ccc(F)cc1)N1CCCCCCC1,10,-3,-2,-3,-3,6,0,2
COc1cc2c(cc1OC)-c1cc(NC3CCCCCC3)nc(=O)n1CC2,0,-1,2,7,-3,2,5,-1
Cc1cccc(NS(=O)(=O)c2ccc(C(=O)NCC3CCCO3)cc2)c1C (stereo not drawn),7,-1,0,11,2,4,5,2
CCC1CCCCN1C(=O)/C=C/c1ccc2c(c1)OCO2 (stereo not drawn),9,3,2,-11,2,3,-4,-3
CN(C)S(=O)(=O)c1ccc(NC(=O)N2CCN(c3cccc(C(F)(F)F)c3)CC2)cc1,3,18,-7,12,0,1,-6,3
Cc1ccc(NS(=O)(=O)c2cc(C(=O)NCCSC3CCCCC3)ccc2C)cc1,-4,-65,-31,-1,-66,2,-13,0
Cc1cc(O)c(C(=O)/C=C/c2cccc([N+](=O)[O-])c2)c(=O)o1,8,2,0,23,-9,6,12,1
O=C(COC(=O)c1ccc(S(=O)(=O)Nc2ccccc2)cc1)NCc1ccco1,0,-6,-4,15,0,-1,1,0
CN1/C(=C\C(=O)COC(=O)c2ccc(O)cc2)C(C)(C)c2ccccc21,-12,-6,-7,-5,-3,-4,1,-25
CN(C)C(CNC(=O)c1cccc(S(=O)(=O)Nc2ccc(Br)cc2)c1)c1ccco1 (stereo not drawn),7,1,-2,-5,3,8,0,-4
Clc1cccc(Cl)c1CO/N=C/c1c(-c2ccccc2)nc2n1CCS2,2,0,5,38,-2,1,0,3

Screening results (PubChem)
